Menin MLL FP FL: inhibitors of human menin-MLL interaction, wild-type MLL peptide; Fluorescence polarization, fluorescein-MLL peptide displacement from menin; FP activity change, % at 61.4 µM; 290,000 tested, under 10 active; AID 1766; inconclusive = falling polarisation curve, or a change in total fluorescence; inactive = total fluorescence flat and polarisation flat or rising; no compound was filed as active; the % refers to the polarisation; negative = inhibition;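 further: % of control where 0% means no effect; inhibitors lower the polarisation; unlabelled MLL peptide was the positive control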
gsp antagonist: antagonizes gsp, the McCune-Albright syndrome mutation; gsp-mutant cells, cAMP HTRF, 30 min; control for the full effect not named in the record; Potency, µM (titrated, usually from 76.9 µM), inactives show at the top dose activity change, negative = inhibition, hits mostly inhibitors; actives 0.4% (n = 340,000); AID 624288; active = falling curve of any shape with a large fitted effect; inconclusive = falling curve, mostly with a smaller effect; inactive = flat or rising curve; cell line not stated here;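 further: intracellular cAMP measured with PDE inhibitor Ro 20-1724 present during compound exposure; potency means the concentration at half of the fitted maximal effect; on the % scale 0 is the no-effect control and ±100 the full control effect; nearly all actives have a fitted effect of over 65% in size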
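Cells in G418 medium, seeded 16-24 h, 37C; buffer exchange to DPBS + 1 mM CaCl2, 0.5 mM MgCl2, 0.05% BSA; cpds in DMSO + […] (300 uM stock), 30 min 37C; HTRF cAMP detection.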
TRPV1 potentiator: human TRPV1 potentiation. Q8NER1. TRPV1-expressing cells, Fluo-8 calcium influx, capsaicin EC20 potentiation; host cell line not named in the record; control for the full effect not named in the record. potentiation, % at 8.33 µM. actives 0.02% (n = 320,000); active means potentiation above 80%; inconclusive means 30% to 80%; inactive means below 30%; further: 0% is about no effect
Target sequence (Q8NER1 whole entry, looked up): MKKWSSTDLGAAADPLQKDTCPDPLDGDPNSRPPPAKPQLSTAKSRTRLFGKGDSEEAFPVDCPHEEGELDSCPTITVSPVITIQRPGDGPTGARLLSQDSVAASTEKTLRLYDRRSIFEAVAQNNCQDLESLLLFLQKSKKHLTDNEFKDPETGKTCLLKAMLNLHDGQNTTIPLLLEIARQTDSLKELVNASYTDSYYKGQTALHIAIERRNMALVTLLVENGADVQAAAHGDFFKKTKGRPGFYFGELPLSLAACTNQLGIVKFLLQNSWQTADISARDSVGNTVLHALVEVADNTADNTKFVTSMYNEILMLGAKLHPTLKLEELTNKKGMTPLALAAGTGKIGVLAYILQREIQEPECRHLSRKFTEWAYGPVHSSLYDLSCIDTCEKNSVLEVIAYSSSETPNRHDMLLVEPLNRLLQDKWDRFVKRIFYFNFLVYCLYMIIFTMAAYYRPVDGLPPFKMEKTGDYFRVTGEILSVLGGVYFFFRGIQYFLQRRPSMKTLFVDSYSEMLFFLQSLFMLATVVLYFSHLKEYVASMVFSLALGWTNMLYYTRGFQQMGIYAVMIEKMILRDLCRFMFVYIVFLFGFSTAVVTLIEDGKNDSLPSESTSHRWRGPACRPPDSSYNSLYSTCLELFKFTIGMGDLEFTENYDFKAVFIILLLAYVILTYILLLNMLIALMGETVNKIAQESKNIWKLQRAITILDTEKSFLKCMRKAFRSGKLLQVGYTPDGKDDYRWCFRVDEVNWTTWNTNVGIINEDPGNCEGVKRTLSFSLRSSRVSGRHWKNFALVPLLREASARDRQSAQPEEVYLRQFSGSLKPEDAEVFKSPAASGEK
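Cells expressing TRPV1 were dye-loaded with Fluo-8 and read kinetically: 10 s baseline, 3 min after compound (agonist portion), then 2 min after EC20 capsaicin (allosteric enhancer portion). Calcium-bound dye fluorescence at 480/520 nm.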
ClpP mod: qHTS Assay for Activators of ClpP; ATP-dependent Clp protease proteolytic subunit (Bacillus subtilis (strain 168)), P80244; purified B. subtilis ClpP, FRET peptide cleavage, 20 min; Potency, µM (doses to about 57.5 µM), for inactives: top-dose activity change, negative = active; actives 1.9% (n = 340,000); active = well fitted falling curve with a large enough effect; inconclusive = small, poorly fitted or top-dose-only effect; inactive = no such curve, though single readings can be large or run the other way; further: potency means the concentration at half of the fitted maximal effect; the source files actives as falling curves though it sought activators and does not explain the sign; nearly all actives have a fitted effect of over 65% in size; many hits overshoot -100%
Target sequence (P80244 whole entry, looked up): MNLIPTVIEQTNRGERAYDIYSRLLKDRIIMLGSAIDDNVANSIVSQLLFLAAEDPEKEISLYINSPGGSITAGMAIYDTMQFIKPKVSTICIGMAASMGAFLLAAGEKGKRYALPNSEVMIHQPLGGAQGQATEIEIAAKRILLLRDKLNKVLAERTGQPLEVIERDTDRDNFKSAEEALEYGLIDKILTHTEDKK
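ClpP 10 microg/mL final, pH 8 Tris/KCl buffer with BSA, glycerol, Tween-20; compound pinned in; FRET-FV substrate; RT 20 min; Ex320/Em430; ΔFRET vs ADEP 5.8 microM, DMSO, no enzyme.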
Sfp PPTase inh: blocks B. subtilis Sfp PPTase activity. AID 1490. actives 3.5% (n = 310,000). Potency, µM, without a hit: max response, negative = inhibition, usual class: inhibitors. Biochemical Sfp PPTase activity, qHTS. Q9F4F7; active means well fitted inhibition curve with a large enough effect; inconclusive means small, poorly fitted or top-dose-only effect, or another doubt; inactive means no such curve, though single readings can be large or run the other way;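 further: the enzyme is Sfp with the accession as filed and its product quenches rhodamine fluorescence; potency means the concentration at half of the fitted maximal effect; 0% = enzyme reaction without inhibitor and -100% = no enzyme wells; top concentration of the series not given in the record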
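With Hepes-Na pH 7.6 buffer containing 10 mM MgCl2, Sfp (15 nM) modified BHQ-2-YbbR (12.5 uM) using rhodamine-CoA (5 uM). Two reads 30 minutes apart at 525/598 nm yielded each well's rate.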
TRPML1 inh: human mucolipin-1 channel inhibition | Q9GZU1 | actives 0.02% (n = 390,000) | TRPML1-inducible cells, Ca2+ dye fluorescence, FDSS; active compounds read low; inhibition of EC80 agonist-evoked calcium signal | activity change, negative = inhibition, % (concentration not given with the values); in the data active means activity change below about -50%; inconclusive means about -30% to -50%; inactive means above about -30%;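 further: stimulus is agonist 54-4 at its EC80 concentration; on the % scale 0 is the no-effect control and ±100 the full control effect; the text of the record puts the active cut at -80%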
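Calcium fluorescence in TRPML1-DL cells induced overnight with Tet: a 110 s read after compound pin addition, then a 110 s antagonist read after challenge with 54-4 at 4 uM final (EC80).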
gsp ag: gsp mutant agonism | gsp mutant cells, cAMP HTRF, 30 min; control for the full effect not named in the record | Potency, µM (titrated, usually from 76.9 µM), for inactives: at the highest dose activation (cAMP increase), hits mostly activators | actives 0.13% (n = 340,000) | AID 624287; active = well fitted activation curve with a large enough effect; inconclusive = small, poorly fitted or top-dose-only effect, or another doubt; inactive = no such curve, though single readings can be large or run the other way; cell line not stated here;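 further: phosphodiesterase inhibitor Ro 20-1724 added with compounds to block cAMP breakdown; potency means the concentration at half of the fitted maximal effect; nearly all actives have a fitted effect of over 60% in size; about a fifth of the inactives were tested at one dose only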
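Cells stably selected in G418 were plated at 2000/well, grown 16-24 hr, then given compounds in DMSO with the PDE inhibitor […] (300 uM solution added) for 30 min at 37C; cAMP was read by HTRF.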
An asterisk follows results filed as active; ? = inconclusive; · = not tested or not shown; & = joins results of further samples; [ ] = another dose, or the depositor's remark.

entry | compound | Sfp PPTase inh | Menin MLL FP FL | TRPML1 inh | ClpP mod | gsp ag | gsp antagonist | TRPV1 potentiator
1 | CC(=O)N1N=C(c2ccco2)CC1c1cccs1 (stereo not given) | ? | 3.7 | -4 | -3.0% | 3% | -4% | -5
2 | CCCCC(=O)Nc1nnnn1CCC | 3% | -1.6 | -10 | -1.9% | -7%[15.4 µM] | 9% | -11
3 | COc1ccc(Cc2n[nH]c(=S)n2Cc2ccccc2)cc1Cl | 9% | -0.4 | 16 | · | 11%[15.4 µM] | -17% | 6
4 | CCOc1ccc(-n2c(SCC(=O)Nc3ccc4c(c3)OCO4)nc3ccccc3c2=O)cc1 | 1% | -1.7 | 22 | -5.6% | -23% | 3% | 1
5 | CCOC(=O)C1CCCN(C(=O)Cn2c(=O)c3cccn3c3cccnc32)C1 (stereo not given) | 21% | · | 10 | 3.9% | 29% | 3% | 4
6 | C=CCN1C(=O)/C(=C/C=C2/N(CC)c3ccc(S(=O)(=O)N(C)C)cc3N2CC)SC1=S | ? | ? | -19 | -1.0% | -23% | -22% | 1
7 | COc1cccc(N/C(=N/C(=S)Nc2ccc(C)cc2C)Nc2nc(C)cc(C)n2)c1 | ? | 6.3 | 58 | · | -8%[15.4 µM] | -3% | 10
8 | CCN(CC)c1ccc(/C=N/NC(=O)C(O)c2ccccc2)cc1 (stereo not given) | -4% | -10 | -6 | 0.8% | -2%[15.4 µM] | -9% | -10
9 | O=c1[nH]c(C2CC2)nc2sc3c(c12)CCCC3 | 22% | -1.0 | -4 | · | -2%[15.4 µM] | -8% | 0
10 | O=C(Cn1cnc2c(cnn2-c2ccc(Cl)cc2)c1=O)NC1CCCCC1 | 9% | 0.6 | 1 | -1.4% | 24% | 10% | -5
11 | CCOC(=O)c1c(NC(=O)c2c(-c3ccccc3)noc2C)sc(C)c1-c1ccccc1 | -5% | 5.7 | 1 | 14µM* | -21% | 3% | 6
12 | CN(C)Cc1ccc(F)cc1Sc1cc(Cl)ccc1Cl | -18% | -1.2 | -7 | 13µM* | 1%[15.4 µM] | -5% | -6
13 | CCOC(=O)c1c(C)oc2ccc(OC(=O)N3CCOCC3)cc12 | 1% | -0.4 | 3 | 0.1% | -44%[inhibitor] | 6% | -5
14 | CCOC(=O)CSc1nc(C(C)(C)C)nc2ccccc12 | 10% | -1.0 | -9 | · | 10%[15.4 µM] | · | 5
15 | CCOC(=O)C(NC(=O)Cc1ccccc1)(Nc1cc(C)on1)C(F)(F)F (stereo not given) | 2% | -0.8 | 0 | -1.0% | -4% | 12% | 3
16 | CCCCNC(=S)NC(=O)c1ccc(Cl)cc1Cl | 6% | -1.2 | 23 | 4.4% | -1% | -21% | -19
17 | Cc1cc(C)c(NC(=O)c2ccc3c(c2)C(=O)N(Cc2cccnc2)C3=O)c(C)c1 | 5% | · | 16 | -1.7% | 16% | ? | -27
18 | COc1ccc(N2C(=S)N(C(=O)c3ccccc3)C(=Nc3ccccc3)C2=Nc2ccccc2)cc1 | · | · | 22 | -0.6% | 21% | -7% | ·
19 | CCc1ccc(OCC(=O)NNC(=S)NC(=O)C2CCCCC2)c(Br)c1 | 12% | · | 6 | 1.0% | ? | 1% | 26
20 | COc1ccc(S(=O)(=O)N(CC(=O)NCc2ccncc2)c2ccc(C)cc2)cc1OC | 9% | -2.9 | 10 | · | 47%[15.4 µM] | 3% | -17
21 | COc1ccc2c(c1OC)C(=O)N(c1ccc3c(c1)CCC3)C2=O | -9% | 0.5 | -2 | -0.7% | ? | 6% | -1
22 | Cc1ccc(OCCn2cnc3ccccc3c2=O)c([N+](=O)[O-])c1 | 3% | 2.6 | -12 | -6.4% | 14%[15.4 µM] | 7% | 18
23 | O=C(NN=Cc1ccc(O)cc1O)c1ccccc1NS(=O)(=O)c1cccs1 | · | · | 5 | -7.7% | -12% | -2% | ·
24 | COc1ccc(-c2cc3ccccc3n2CC(O)CN2CCCCC2)cc1 (stereo not given) | -14% | -1.1 | -18 | 3.2% | -31% | 3% | 7
25 | COc1ccc(NC(=O)N2CCCC(c3nc(-c4ccc(C(C)C)cc4)no3)C2)cc1 (stereo not given) | 2% | 4.7 | 1 | 2.3% | ? | -15% | 3
26 | CCC(=O)NC(=S)Nc1cccc(-c2nc3ncccc3o2)c1 | 8% | 3.6 | -15 | 1.4% | ? | 1% | -7
27 | Cc1ccc(OCC(=O)NCCN2CCOCC2)cc1C | -12% | 3.2 | -4 | -1.3% | ? | 2% | -5
28 | Cc1ccc(CNC(=O)CSCc2ccc(F)cc2)cc1 | -3% | -7.7 | -2&-24 | -0.1% | -25%[15.4 µM] | 0% | -10
29 | Cc1ccc(S(=O)(=O)N2CCN(C(=O)CN3CCCSc4ccccc43)CC2)cc1 | · | · | 41 | 40% | 0%[15.4 µM] | -14% | -3
30 | CCOc1ccccc1NC(=O)C1CCCCN1S(=O)(=O)c1ccc(F)cc1 (stereo not given) | 3% | 0.6 | -3 | -0.6% | -29% | -11% | -16
31 | CCN(CC)C(C)C#CCC(c1ccccc1)c1ccccc1 (stereo not given) | 27% | 1.4 | · | · | · | · | -1
32 | OC(COC1CCCCC1)CN1CCN(c2ccccc2)CC1 (stereo not given) | -3% | 0.5 | -5 | 0.7% | -30%[inhibitor] | 10% | 3
33 | CN(c1cccc(NC(=O)CN(c2ccc(Cl)c(Cl)c2)S(=O)(=O)c2ccccc2)c1)S(C)(=O)=O | 29% | 0.8 | 12 | -3.1% | -41%[inhibitor] | -37% | 2
34 | Cc1cccc(-c2nc(C#N)c(N3CCC(C)CC3)o2)c1 | 11% | 0.5 | -6 | · | 19% | 4% | -30
35 | COc1ccc(NC(=O)CSc2nc(O)c(Cc3ccccc3)c(=O)[nH]2)cc1 | -8% | -3.7 | 13 | -0.8% | -8% | 11% | -8
36 | COC(=O)C[C@H]1c2cc(F)ccc2S(=O)(=O)N1Cc1ccccc1 | · | · | 15 | 1.8%&-0.3% | 34% | -8% | ·
37 | CC(C)NC(=O)c1cc(-c2cccs2)on1 | 1% | -2.8 | -2 | -7.6% | 0% | 9% | -4
38 | CCOc1ccc2[nH]c(=O)c(CN(CCO)C(c3nnnn3C3CCCCC3)C(C)C)cc2c1 (stereo not given) | 89µM* | -9.5 | -4 | -19% | 6% | -10% | ?
39 | CCOC(=O)c1[nH]c(C)c(C(=O)NC(C)(C)C)c1C | 12% | 0.8 | -19 | -0.7% | 16% | 0% | 27
40 | CN(C)c1cc2c(cc1NC(=O)c1ccccc1Cl)n(C)c(=O)n2C | 13% | 0.3 | -4 | 1.0% | -10%[15.4 µM] | 4% | -5
41 | O=C(Nc1ccc(Cl)cn1)c1cccc(S(=O)(=O)N2CCCC2)c1 | 6% | 1.2 | 0 | -1.0% | 26%[15.4 µM] | 5% | 4
42 | Cc1c(C)c2ccc(OC(C)C(=O)NCCCn3ccnc3)c(C)c2oc1=O (stereo not given) | 14% | 0.8 | 13 | 3.4% | -1% | -8% | -4
43 | N#Cc1cccc(CSc2ncnc(N)n2)c1 | -3% | -0.6 | -7 | · | -27%[15.4 µM] | 3% | 11
44 | O=C(c1c[nH]c2ccccc12)C(O)C(c1ccccc1)N1CCOCC1 (stereo not given) | 27% | 0.8 | -12 | 1.2% | 0% | 3% | -2
45 | CC(NC(=O)c1cccnc1)C(c1cccs1)N1CCN(C)CC1 (stereo not given) | 8% | -0.6 | -5 | -0.6% | 22% | 9% | 3
46 | CC(C)(C)C(=O)N1CCc2cc(-c3csc(N)n3)ccc21 | -25% | 4.0 | 18 | 0.6% | 5% | -4% | 6
47 | CC1=C(C(=O)Nc2ccccc2)C(c2ccco2)C(C#N)=C(SCC(N)=O)N1 (stereo not given) | 0% | 0.6 | -6 | -8.7% | -11% | -3% | -3
48 | Cc1nc2c(C)cccn2c1/C(O)=C1\C(=O)C(=O)N(CCN2CCOCC2)C1c1ccncc1 (stereo not given) | 8% | 1.3 | -5 | -6.8% | 3% | -7% | 11
49 | CCOC(=O)N1CCc2c(sc(NC(=O)c3ccc(S(=O)(=O)N4CCCC4)cc3)c2C#N)C1 | ? | ? | 14 | 13% | -71%[inhibitor] | ? | -1
50 | Cc1ccc2nc3c(cc(C(=O)NCc4ccco4)c(=N)n3Cc3ccco3)c(=O)n2c1 | -10% | 5.6 | 2 | · | -15% | -1% | -22
51 | CC(C)CCn1c(=O)c2ccccc2n2c(=S)[nH]nc12 | 56µM* | -7.5 | 9 | · | -4%[15.4 µM] | -9% | -8
52 | COc1ccc(CCNC(=O)CSc2ccsc2[N+](=O)[O-])c(OC)c1 | 11% | 0.8 | -12 | 2.0% | -11% | -21% | 12
53 | N#Cc1ccc2ccn(CC(=O)NCc3ccccc3)c2c1 | -7% | 0.6 | -5 | 25µM* | 5% | 5% | 2
54 | Cc1cc(C)c2cc(C#N)c(SCC(=O)NCC3CCCO3)nc2c1 (stereo not given) | -4% | 5.9 | 10 | -7.2% | -13% | 0% | 0
55 | CCn1c(SCC(=O)Nc2ccc(C(C)=O)cc2)nc2nc3c(cc2c1=O)CCCC3 | -9% | 1.3 | 4 | 1.0% | -1% | 13% | 12
56 | NC(=O)CSc1nnc(Cc2csc(Nc3ccc(F)cc3)n2)n1Cc1ccccc1 | 3% | -0.5 | 0 | -3.0% | 11% | -2% | 2
57 | COCc1ccc(C(=O)N2CCCC(N3CCN(c4ccccc4C)CC3)C2)s1 (stereo not given) | 5% | · | 22 | -0.1% | -27% | -9% | 2
58 | Cc1occc1C(=O)NCc1ccccc1F | ? | 8.7 | 5 | -2.0% | -49%[inhibitor] | 9% | 12
59 | O=C1C=C(NCCOC23CC4CC(CC(C4)C2)C3)C2(CCCCC2)O1 | 3% | -9.3 | 29 | -0.1% | -17% | -2% | 14
60 | CCS(=O)(=O)Nc1cc(C(=O)OC)ccc1C(=O)OC | ? | 0.8 | -9 | -7.0% | 34% | -1% | 0
